Bioassay records (PubChem BioAssay)
VDR inh: vitamin D3 receptor (human) inhibition | P11473 | VDR-SRC2-3 peptide fluorescence polarization, 2 h | Potency, µM, for the others: max response, negative = inhibition, most hits filed as inhibitors | 0.93% of 400,000 active | AID 504847; active = well fitted inhibition curve with a large enough effect; inconclusive = small, poorly fitted or top-dose-only effect, or another doubt; inactive = no such curve, though single readings can be large or run the other way; also: series mostly up to about 120 µM
Target sequence (P11473 whole entry, looked up): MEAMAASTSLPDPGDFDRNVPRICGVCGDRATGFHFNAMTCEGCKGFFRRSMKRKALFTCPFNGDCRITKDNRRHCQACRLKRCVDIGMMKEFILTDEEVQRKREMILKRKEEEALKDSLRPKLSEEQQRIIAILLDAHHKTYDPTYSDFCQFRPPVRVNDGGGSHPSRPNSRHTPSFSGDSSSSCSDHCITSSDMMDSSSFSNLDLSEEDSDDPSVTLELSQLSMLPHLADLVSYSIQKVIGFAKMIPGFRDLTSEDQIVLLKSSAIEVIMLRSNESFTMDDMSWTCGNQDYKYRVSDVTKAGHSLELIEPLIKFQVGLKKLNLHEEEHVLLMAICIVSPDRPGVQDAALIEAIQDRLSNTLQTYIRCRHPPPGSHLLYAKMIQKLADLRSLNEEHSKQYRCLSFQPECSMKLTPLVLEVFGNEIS
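Inhibition of the VDR/SRC2-3 peptide interaction is quantified by fluorescence polarization. Compounds (23 nl, pintool) incubate with the reagents for 2 hours at ambient room temperature.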
* marks the source's active call; other numbers are inactive results; ? = inconclusive; & = joins results of further samples; [ ] = dose if it differs, or a comment. % is scaled to controls: 0 for no effect and ±100 for the full control effect; potency is read from the fitted curve at half-maximal effect. Only part of the results is shown. The share of hits here may be higher or lower than overall.

VDR inh | molecule
-8% | CS(=O)(=O)N1CCN(c2ccc([N+](=O)[O-])cc2F)CC1
-10% | O=C(NC1CC1)c1cccc(NC(=O)c2cn3ccccc3n2)c1
-18% | COc1ccc(-c2oc3ccc(-c4cc(OC)c(OC)c(OC)c4)cc3c2C#Cc2ccsc2)cc1
-9% | CN1CCc2c(sc3nc(NN)n(-c4ccc(Cl)cc4)c(=O)c23)C1
17% | COc1ccc(C(=O)NN2C(=O)C3C4C=CC(O4)C3C2=O)cc1 (stereo not given)
30% | Nc1cc2c(cc1C(=O)c1ccccc1F)OCCO2
0% | O=c1[nH]c2c(c(=O)n1-c1ccccc1)CCO2
-2% | Cc1ccc(OCc2cc(C(=O)N(C)CCc3nc4ccccc4[nH]3)no2)cc1C
-11% | Cc1ccc2nc(/C(C#N)=C/c3cn[nH]c3-c3ccc(F)cc3)[nH]c2c1
-5% | CC(NS(C)(=O)=O)C(c1cccs1)N1CCN(c2ccccc2)CC1 (stereo not given)
-2% | O=C(c1ccco1)N1CCN(C(c2ccc(Cl)cc2)c2nnnn2Cc2ccccc2)CC1 (stereo not given)
0% | Cc1ccc(NC(=O)CSc2ncccc2C(=O)Oc2cccc([N+](=O)[O-])c2)cc1Cl

Structures above that have fluorine:
VDR inh | molecule
-8% | CS(=O)(=O)N1CCN(c2ccc([N+](=O)[O-])cc2F)CC1
30% | Nc1cc2c(cc1C(=O)c1ccccc1F)OCCO2
-11% | Cc1ccc2nc(/C(C#N)=C/c3cn[nH]c3-c3ccc(F)cc3)[nH]c2c1

More entries follow.
VDR inh | molecule
-6% | Cc1oc(-c2ccc(C(=O)NCc3ccccc3Cl)cc2)nc1CN1CCc2ccccc21
19% | Cc1ccc(Nc2nc3nonc3[nH]c2=O)cc1
18% | COCCCn1c(=O)c2ccccc2n(Cc2ccc(C)cc2)c1=O
-14% | CC(C)c1ccccc1NS(=O)(=O)c1cccs1
? | COc1ccc(-c2cccc3c2NC(=O)C3=O)cc1OC
-8% | CCCc1cc(NCCN(C)C)n2c(nc3ccccc32)c1C#N
-16% | O=C(Cc1c(Cl)cccc1Cl)N/N=C/c1cccnc1
-7% | O=c1oc2ccccc2cc1-c1nc(-c2ccccc2)no1
-24% | COCCNC(=S)NC1CC2CCCC(C1)N2Cc1cccs1 (stereo not given)
2% | COC(=O)[C@@]12CCCN1[C@H](c1ccc(-c3ccc4c(c3)OCO4)c(OC)c1)[C@H]1C(=O)N(C)C(=O)[C@H]12
33%[activator] | CCn1ncc(Br)c1C(=O)Nc1ccc(F)cc1F
-15% | CC1(C)CC(=O)C(C=NCCN2CCN(C(=O)c3ccc(Br)cc3)CC2)=C(O)C1

VDR inh | molecule
-20% | COc1ccccc1NC(=O)NCCN1CCN(C(=O)Nc2ccccc2OC)CC1
5% | CCc1ccc2c(c1)C(=O)CCC2
0% | Cc1ccc(C)c(N2CCN(C(=O)CCC(=O)Nc3ccc4nc(N5CCCCC5)cc(C)c4c3)CC2)c1
-22%&-11% | OC[C@@H]1[C@@H](c2ccc(Cl)cc2)C(c2cccc(Cl)c2)=NN1c1ccccc1
-2% | CC(C)[C@H](NC(=O)c1ccc(F)cc1)C(=O)NC1=NCCS1
-4% | CCN(CC)CCNC(=O)c1ccc(NC(=O)c2cccc(-n3cnnn3)c2)cc1
3% | CCCCC(CC(O)COCC(C)C)C(=O)NNC(=S)Nc1ccccc1 (stereo not given)
5% | Cc1nc2c(C)cccn2c(=O)c1NC(=O)c1cccs1
-3% | c1ccc(-n2nnnc2Sc2n[nH]c(-c3ccncc3)n2)cc1
6% | O=C(c1ccc(-c2nnc(Nc3cccc(Cl)c3)c3ccccc23)cc1)N1C[C@H]2C[C@H](C1)c1cccc(=O)n1C2
23% | O=C(Cn1c(=O)n(Cc2nc(-c3ccccc3)no2)c(=O)c2ccccc21)Nc1cccc(Cl)c1
-3% | O=C(Cc1ccc(F)cc1)N/N=C/c1ccncc1

The list goes on, overlapping the part above by four compounds.
VDR inh | molecule
-3% | c1ccc(-n2nnnc2Sc2n[nH]c(-c3ccncc3)n2)cc1
6% | O=C(c1ccc(-c2nnc(Nc3cccc(Cl)c3)c3ccccc23)cc1)N1C[C@H]2C[C@H](C1)c1cccc(=O)n1C2
23% | O=C(Cn1c(=O)n(Cc2nc(-c3ccccc3)no2)c(=O)c2ccccc21)Nc1cccc(Cl)c1
-3% | O=C(Cc1ccc(F)cc1)N/N=C/c1ccncc1
5% | O=C(NCc1ccccc1)c1nnc(Cc2cccc(F)c2)o1
10% | Cc1ccc(NC(=O)CN2CCC(NC(=O)Cc3ccccc3)CC2)cc1C
12% | Cc1[nH]c2ccccc2c1/C=N/Nc1nc(Nc2ccccc2)nc(N2CCOCC2)n1
-1%&8%&-1% | Cc1[nH]c(=O)c(C#N)cc1-c1ccc2nccn2c1
-19% | CCCCn1nc(C(=O)Nc2nc3c(s2)CCCC3)c2ccccc2c1=O
6% | Cc1ccc(-c2nc3c(c(SCC(=O)Nc4cccc(C(=O)O)c4)n2)Cc2cccc(C)c2O3)cc1
9% | CCOC(=O)CC(NC(=O)Cn1nnc(-c2ccc(C(F)(F)F)cc2)n1)c1ccc(OC)cc1 (stereo not given)
-9% | O=[N+]([O-])c1ccccc1/C=N/N1CCN(c2ccc(Cl)cc2)CC1
6% | NC(=S)NNC(=O)c1cccc(Cl)c1
5% | COCCNC(=O)c1ccc(CS(=O)(=O)c2ccccc2OC)o1
-5% | CCc1ccc2[nH]c(=O)c(C(c3nnnn3CC3CCCO3)N3CCCc4ccccc43)cc2c1 (stereo not given)
-4% | Cc1cccc(NC(=O)c2sc(Cl)nc2C)c1C

VDR inh | molecule
-10% | CCOC(=O)c1ccccc1N=N/C(C(C)=O)=C(/C)O
-13% | Cc1ccc(-c2nnc(Nc3ccc(Cl)cc3)c3ccccc23)cc1S(=O)(=O)NCC1CCCO1 (stereo not given)
? | Cc1ccc(C(=O)NCC(=O)OCC(=O)/C=C2\N(C)c3ccccc3C2(C)C)cc1C
17% | CCCC1=NCCn2cccc21
-7% | Cc1ccc(NC(=O)c2ccccc2F)cc1S(=O)(=O)N1CCCCCC1
-6% | COC(=O)C(C)(C)ONC(=O)Nc1ccc(Br)cc1
6% | COc1cccc(CN2CC(C(=O)NC3CCC3)CCC2=O)c1 (stereo not given)
4% | CC1CCCN(C/C=C/c2ccccc2[N+](=O)[O-])C1 (stereo not given)
-10% | Cc1c(NC(=O)c2ccc(S(=O)(=O)N3CCOCC3)cc2)c(=O)n(-c2ccccc2)n1C
? | O=[N+]([O-])c1c(Nc2ccccn2)cc(Cl)c2nonc12
-5% | O=C(CCCC(=O)OCC(Cl)=C(Cl)Cl)Nc1cccc(F)c1
1% | COc1ccc(-n2nnnc2CNC(=O)C(=O)c2c[nH]c3ccccc23)cc1

VDR inh | molecule
25% | C/C(=N\NC(=O)c1cc(Br)ccc1O)c1cccc(NC(=O)c2ccccc2F)c1
-16% | CS(=O)(=O)N1CCN(C(=O)COc2ccccc2)CC1
3% | COc1cccc(Cn2c(=O)c(-c3ccccc3)nc3cnc(N4CCN(C)CC4)nc32)c1
? | NC(=S)n1[nH]c(-c2ccc([N+](=O)[O-])cc2)c(N=Nc2cccc([N+](=O)[O-])c2)c1=O
-23% | COC(=O)c1ccccc1OCCCCN1CC(C)OC(C)C1 (stereo not given)
6% | COCCn1nnnc1C(c1cccs1)N1CCN(c2cccc(C(F)(F)F)c2)CC1 (stereo not given)
1% | COc1ccccc1CNC(=O)CC1C(=O)NCCN1C1Cc2ccccc2C1 (stereo not given)
-12% | C/C(Cc1ccccc1)=N\NC(=O)CNC(=O)c1ccc(Br)cc1
-5% | CC1CCN(S(=O)(=O)c2ccc(NC(=O)C3CC(=O)N(c4ccccc4)C3)cc2)CC1 (stereo not given)
-18% | Cc1cc(C)cc(OC(C)C(=O)Nc2nc3c(s2)CCCC3)c1 (stereo not given)
-1% | CN1/C(=C/c2cccc[n+]2C)Sc2ccccc21
4% | O=C(COC(=O)c1ccccc1NC(=O)c1ccco1)Nc1ccc2c(c1)OC(F)(F)O2

VDR inh | molecule
11% | Cc1cc(C)nc(Sc2c(F)c(F)c(C(F)(F)F)c(F)c2F)n1
-7% | O=C(NCc1ccco1)c1ccc2c(c1)N(Cc1c(F)cccc1Cl)C(=O)c1ccccc1S2
7% | O=C(OCC1CCCO1)c1ccc2c(c1)N(Cc1cccc(F)c1)C(=O)c1ccccc1S2(=O)=O (stereo not given)
6% | C=C(C)Cn1c(N2CCC(Cc3ccccc3)CC2)nc2c1c(=O)[nH]c(=O)n2C
6% | CCOc1ccc(-n2c(-c3ccc(Cl)cc3)c[n+]3c2SCC3)cc1
-5% | COC(=O)c1ccc(NC(=S)N2CCN(Cc3ccc(Cl)cc3)CC2)cc1
-16% | COc1ccc(N2CC(C(=O)Nc3ccc4c(c3)OCO4)CC2=O)cc1 (stereo not given)
10% | OC(COc1ccccc1)CSc1ncn[nH]1 (stereo not given)
-11% | COc1cccc(C(=O)Nc2nc3ccccc3s2)c1
9% | CCN(CCCNC(=O)c1ccc(Sc2ccc(C)cc2)c(NC(C)=O)c1)c1cccc(C)c1
6% | CCCOP(=O)(OCCC)C1(Nc2ccc(C)cc2)CCCCC1
-17% | Cc1ccc(CN2CCSc3ccc(C(=O)NC4CCN(Cc5ccccc5)CC4)cc32)cc1

VDR inh | molecule
-26% | COC(=O)c1c(NC(=O)C2C3CCC(C3)C2C(=O)O)sc2c1CCCCC2 (stereo not given)
-10% | CCCCCCCC1CC(CSC(=N)N)OC1=O (stereo not given)
-14% | O=S(=O)(NCCc1ccccc1)c1cccs1
-13% | COc1cccc(Nc2nn3c(=O)c4ccccc4nc3s2)c1
14% | CCCCNC(=O)C(=O)c1ccccc1NC(C)=O
-12% | COc1cc(C2C(C(=O)c3ccc(C)o3)=C(O)C(=O)N2CCN2CCOCC2)ccc1OCCC(C)C (stereo not given)
-21% | CCCCN(Cc1nc2ccccc2c(=O)[nH]1)C(=O)COc1ccc(F)cc1Cl
? | O=C(NCC1CCCCC1)c1ccc(Br)o1
-8% | COc1ccc(-c2cc(C(F)(F)F)nc(SCC(=O)NCc3cnn(C)c3C)n2)cc1OC
11% | COc1cccc(N2CCN(CC(=O)c3c(C)[nH]c4ccccc34)CC2)c1
-16% | O=[N+]([O-])c1cc(S(=O)(=O)N2CCCC2)ccc1NN=C1CCCCC1
9% | COc1cc(-c2cc(-c3ccccc3)nc(SCC(=O)Nc3nccs3)c2C#N)cc(OC)c1OC

Six entries from above, comma-delimited:
SMILES,VDR inh
CCCOP(=O)(OCCC)C1(Nc2ccc(C)cc2)CCCCC1,6%
Cc1oc(-c2ccc(C(=O)NCc3ccccc3Cl)cc2)nc1CN1CCc2ccccc21,-6%
COc1cccc(C(=O)Nc2nc3ccccc3s2)c1,-11%
O=[N+]([O-])c1c(Nc2ccccn2)cc(Cl)c2nonc12,?
Cc1c(NC(=O)c2ccc(S(=O)(=O)N3CCOCC3)cc2)c(=O)n(-c2ccccc2)n1C,-10%
Cc1cccc(NC(=O)c2sc(Cl)nc2C)c1C,-4%

The listing continues:
VDR inh | molecule
-10% | Cc1nnc(SCc2nc3sc4c(c3c(=O)[nH]2)CCCC4)n(N)c1=O
-8% | COc1ccc(NC(=O)COC(=O)c2ccc(-n3cnnn3)cc2)cc1Cl
0% | C[N+]1(CCNC(=O)/C=N/O)CCCCC1
-4% | COCCNC(=O)c1cc(-c2ccccn2)nc2ccc(S(=O)(=O)N3CCC(C)CC3)cc12
1% | COC(=O)CC(NC(=O)c1ccco1)c1ccc(C(C)C)cc1 (stereo not given)
0% | COc1ccc(-c2nc(CN3CCN(c4ncnc5ccccc45)CC3)c(C)o2)c(OC)c1
-8% | CC(C)(C)Nc1nc(Cl)nc(NCCN2CCOCC2)n1
0% | C=CCN=C1SCC(=O)N1S(=O)(=O)c1ccccc1
-8% | COc1ccccc1OCCNC(=O)c1ccc(NC(=O)CC2SC(N3CCCC3)=NC2=O)cc1 (stereo not given)
-13% | C/C(=N\NC(=O)C1CC1)c1ccc(OC(F)F)cc1
-14% | Cc1ccc(CNC(=O)CS(=O)Cc2nc(-c3ccccc3C)oc2C)cc1 (stereo not given)
-25% | CC(=O)Nc1ccc(SCCN2CC[C@@H](C(C)(C)C)CCC2=O)cc1

VDR inh | molecule
6% | COc1ccc(CCNC(=O)COc2ccc3c(c2)OCO3)cc1
-15% | Cc1ccsc1/C=N/Nc1nc2ccccc2s1
7% | CCCN(Cc1nnc(-c2ccccc2Cl)o1)C(=O)c1cc([N+](=O)[O-])cc([N+](=O)[O-])c1
-1% | CC1CN(CC(O)COC2CCC(C(C)(C)C)CC2)CC(C)O1 (stereo not given)
-14% | Cc1ccc(CNC(=O)CCS(=O)(=O)c2cc3c(cc2Cl)NC(=O)CO3)o1
-14% | COc1ccc(C(=O)NNC(=O)Cc2nc3nc(C)cc(C)n3n2)cc1
-2% | CC1CCCCC12NC(=O)N(CC(=O)NCCc1ccccc1)C2=O (stereo not given)
-5% | COc1ccc(Cl)cc1C(=O)NNC(=O)CCNS(=O)(=O)c1ccccc1
-3% | COc1ccc(NC(=O)CSc2ccccn2)cc1OC
9% | C/C(=C\C(=O)C(F)(F)F)Nc1cc(C)cc(C)c1
9% | O=C(O)CCn1c2c(c3ccccc31)CCCC2
-15% | O=C(NCC1CCCO1)c1ccc(CNS(=O)(=O)c2ccc(F)c(Cl)c2)cc1 (stereo not given)

VDR inh | molecule
2% | COc1ccccc1CN1C(=O)CCC1(C)C(=O)NC1CCCCCC1 (stereo not given)
-5% | Cc1ccc(CNC(=O)C(=O)NCC(c2ccc3c(c2)OCO3)N2CCOCC2)cc1 (stereo not given)
6% | CC(=O)Nc1ccc(C(=O)NNC(=O)c2ccc(Cl)cc2)cc1
-2% | CS(=O)(=O)N1CCN(C(=O)CCC2CCCC2)CC1
-1% | COc1ccc(Nc2nc(Cl)nc(NCc3ccco3)n2)c(OC)c1
